LASV entry inh – Lassa virus entry inhibition; Lassa virus pseudotype entry inhibition, cell reporter; control for the full effect not named in the record; Potency, µM (series often up to 37.9 µM), for inactives: at the highest dose activity change, negative = inhibition, most hits filed as inhibitors; 300,000 tested, 1.2% active; AID 540256; active means well fitted inhibition curve with a large enough effect; inconclusive means small, poorly fitted or top-dose-only effect, or effect the other way; inactive means flat fitted curve, though single readings scatter; tested in HEK293 cells; also: % is scaled to controls: 0 for no effect and ±100 for the full control effect; nearly all actives have a fitted effect of over 50% in size; luciferase read-out
MARV entry inh – inhibitors of Marburg virus binding or cell entry; Marburg virus pseudotyped entry inhibition, cell reporter; control for the full effect not named in the record; about a third of the inactives were read at about 46 µM; Potency, µM (doses to about 37.8 µM), for inactives: top-dose activity change, negative = inhibition, usual class: inhibitors; 300,000 tested, 1.8% active; AID 540276; active = well fitted inhibition curve with a large enough effect; inconclusive = small, poorly fitted or top-dose-only effect, or effect the other way; inactive = flat fitted curve, though single readings scatter; tested in HEK293 cells; about a fifth of its hits are not listed in these tables; also: % is scaled to controls: 0 for no effect and ±100 for the full control effect; luciferase read-out
Cruzain Triton – blocks cruzain activity in presence of Triton detergent. P25779. purified cruzain, Z-FR-AMC fluorescence, 0.01% Triton. Potency, µM, for the others: max response, negative = inhibition, actives largely listed as inhibitors. 200,000 tested, 0.43% active. AID 1478; active = well fitted curve in the direction sought with a large enough effect; inconclusive = small, poorly fitted or top-dose-only effect, or another doubt; inactive = no such curve, though single readings can be large; an effect the other way counts as inactive or inconclusive;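 also: plate controls were neutral wells for no effect and buffer without enzyme for full effect; nearly all actives have a fitted effect of over 40% in size; top concentration of the series not given in the record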
Target sequence (P25779 123-467 limits assumed): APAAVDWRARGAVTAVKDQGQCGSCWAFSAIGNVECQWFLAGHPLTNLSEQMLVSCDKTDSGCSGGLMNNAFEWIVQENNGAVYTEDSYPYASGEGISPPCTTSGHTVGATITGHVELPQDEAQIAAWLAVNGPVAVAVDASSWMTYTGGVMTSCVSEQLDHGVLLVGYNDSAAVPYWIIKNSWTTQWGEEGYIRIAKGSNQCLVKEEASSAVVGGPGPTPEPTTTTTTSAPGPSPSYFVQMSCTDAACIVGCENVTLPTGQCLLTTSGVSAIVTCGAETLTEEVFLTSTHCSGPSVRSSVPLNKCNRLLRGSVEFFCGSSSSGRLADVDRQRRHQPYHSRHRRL
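Sodium acetate buffer (100 mM, pH 5.5) containing 5 mM DTT and 0.01% Triton X-100 hosted 1.5 nM cruzain and test compound for 15 min at room temperature. Cleavage of 2 uM Z-FR-AMC was then tracked by fluorescence.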
NS1 function inh – influenza NS1 inhibition. Potency, µM (highest dose often 46.1 µM), inactives show at the top dose activity, positive = more growth. S. cerevisiae slowed by influenza A NS1, growth recovery by OD600. 270,000 tested, 0.4% active; also: actives are rising curves; nearly all actives have a fitted effect of over 50% in size
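Growth recovery, yeast-based: influenza A NS1 expressed in S. cerevisiae causes slow growth, and suppressors are detected by OD600. The parent strain without NS1 is used as positive control.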
StopGo reporter – FMDV 2A StopGo reporter, luciferase signal; 410,000 tested, 1.2% active; human cells with a luciferase reporter of 2A StopGo recoding; control for the full effect not named in the record; AID 1159524; Potency, µM (top dose mostly 57.9 µM), inactives show at the top dose signal change, negative = less light; active = well fitted falling curve with a large enough effect; inconclusive = small, poorly fitted or top-dose-only effect; inactive = no such curve, though single readings can be large or run the other way; tested in HEK293T cells; also: % is scaled to controls: 0 for no effect and ±100 for the full control effect; nearly all actives have a fitted effect of over 45% in size; luciferase light after 4 h
RE007 growth inh – less growth of the S. pombe RE007 Vpr strain. AID 651644. Potency, µM (series often up to 92.2 µM), inactives show at the highest dose activity change, negative = less growth. S. pombe RE007 Vpr strain, BacTiter-Glo ATP luminescence, 24 h; control for the full effect not named in the record. 360,000 tested, 0.21% active; active = well fitted falling curve with a large enough effect; inconclusive = small, poorly fitted or top-dose-only effect; inactive = no such curve, though single readings can be large or run the other way;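 also: % is scaled to controls: 0 for no effect and ±100 for the full control effect; nearly all actives have a fitted effect of over 50% in size; the assay follows cell death caused by Vpr and the record does not say whether a fall means rescue or toxicity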
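Fission yeast RE007 carrying one integrated HIV-1 vpr copy, seeded at OD 0.01 in PMG+AL medium with 23 nL pinned compound. Grown 24 h at 30 degrees; viability read by BacTiter-Glo luminescence after 5 min.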
SARS PLP yeast – SARS-CoV PLP inhibition in yeast | S. cerevisiae expressing SARS-CoV PLpro, growth rescue; control for the full effect not named in the record | Potency, µM (top dose mostly 32.9 µM), inactives show top-dose activity, positive = growth rescue | 330,000 tested, 0.19% active | AID 485353; also: 0% is about no effect; nearly all actives have a fitted effect of over 55% in size; growth read by luminescence after 48 h
Cruzain inh noDet – inhibitors of Trypanosoma cruzi cruzain without detergent; P25779; purified cruzain, Z-FR-AMC fluorescence, no detergent; Potency, µM, inactives show max response, negative = inhibition, usual class: inhibitors; 200,000 tested, 2.3% active; AID 1476; active = well fitted curve in the direction sought with a large enough effect; inconclusive = small, poorly fitted or top-dose-only effect, or another doubt; inactive = no such curve, though single readings can be large; an effect the other way counts as inactive or inconclusive;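 also: plate controls were enzyme without inhibitor for no effect and buffer without enzyme for full effect; nearly all actives have a fitted effect of over 40% in size; top concentration of the series not given in the record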
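Purified cruzain at 1.5 nM, pre-incubated 15 min with compound at room temperature in 100 mM sodium acetate pH 5.5, 5 mM DTT, 0.00005% Triton X-100. Reaction started with 2 uM Z-FR-AMC; AMC fluorescence increase over 60 s gives rate.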
Starred values were filed as active, the others as inactive; u = inconclusive; x = not tested or not shown; & = joins results of further samples; [ ] = dose if it differs, or a comment. Unless noted, calls follow the shape of the dose curve; as a rule, active means well fitted rising curve with a large enough effect; inconclusive means small, poorly fitted or top-dose-only effect; inactive means no such curve, though single readings can be large or run the other way. Potency is read from the fitted curve at half-maximal effect.

| compound | SARS PLP yeast | RE007 growth inh | MARV entry inh | LASV entry inh | StopGo reporter | NS1 function inh | Cruzain Triton | Cruzain inh noDet |
| --- | --- | --- | --- | --- | --- | --- | --- | --- |
| Cc1ccc(S(=O)(=O)N2CCOC2CNC(=O)C(=O)NCc2ccccc2)cc1 (stereo not drawn) | -4.8% | 1.1% | 23.5% | -25.8% | -14.6% | -4.3% | x | x |
| CC(CNC(=O)Cn1ncc2c3ccccc3n(Cc3cccc(Cl)c3)c2c1=O)c1ccccc1 (stereo not drawn) | x | x | -31.8%[46.1 µM] | 1.4%[46.1 µM] | 50.4%[activator] | x | -2.5% | 5.5% |
| COC(=O)Cn1c(CCS(=O)(=O)c2ccc(C)cc2)nc2ccccc21 | 1.7% | -4.7% | -10.5%&-10.5% | u | x | -1.3% | -1.2% | -4.1% |
| N/C(=N\c1nc2ccccc2o1)NC(=O)c1cccc(Br)c1 | 0.2% | 3.3% | 11.9%[46.1 µM] | -2.6% | -7.4% | -2.9% | x | x |
| Cc1c(Cl)cccc1-n1c(CCC(=O)O)ccc1-c1cccs1 | x | x | 3.5%[46.1 µM] | 2.0%[46.1 µM] | -11.7% | x | -17.1% | -7.0% |
| CC1=NN(c2nc(-c3ccc(C)cc3)cs2)C(=O)C1N=Nc1cccc(C)c1 (stereo not drawn) | -0.2% | 2.2% | 3.2% | 0.1% | -7.3% | 8.7% | -5.3% | 12.6µM* |
| Nc1cc(=O)[nH]c(SCC(=O)NC2CCCc3ccccc32)n1 (stereo not drawn) | -0.3% | -4.5% | x | x | -19.0% | -0.6% | x | x |
| COC(=O)C1=CN(Cc2ccc(F)cc2)C=C(C(=O)OC)C1c1cc(OC)c(OC)c(OC)c1 | 2.0% | 0.4% | x | x | -0.1% | -2.6% | x | x |
| Cn1c(/C=C/c2ccc(Cl)cc2)c([N+](=O)[O-])c(=O)n(C)c1=O | -3.4% | -4.1% | x | x | 17.8µM* | -40.7% | x | x |
| O=C(Cn1cnc2c(nnn2-c2ccccc2)c1=O)NCCc1ccccc1 | 2.9% | 2.4% | x | x | -9.1% | -1.8% | -0.5% | -2.8% |
| COCc1c(C(=O)OC)nnn1-c1ccccc1 | -1.1% | -12.3% | -0.7% | 9.3% | 3.3% | 2.4% | 0.0% | -10.2% |
| O=C(Nc1ccc(F)cc1F)NC1CC1 | -1.9% | -1.8% | 1.2%[46.1 µM] | -1.0% | 6.3% | x | x | x |
| COc1ccc(OC)c(C2=NNC(=NCc3ccc4c(c3)OCO4)SC2)c1 | -16.7% | 17.7% | -21.2%[46.1 µM] | u | 18.5% | 13.9% | -8.4% | 12.6µM* |
| O=S(=O)(NCC(c1cccnc1)N1CCN(c2ccc(F)cc2)CC1)c1cc(F)ccc1F (stereo not drawn) | x | -6.7% | -11.7% | -9.4% | -15.7% | -55.7% | x | x |
| COc1ccc(S(=O)(=O)n2nc(C)cc2C)cc1OC | 0.9% | 0.7% | x | x | 10.6% | 10.8% | x | x |
| Cc1ccc(-n2ncc3c(NCc4ccc5c(c4)OCO5)ncnc32)c(C)c1 | -1.0% | 12.9% | -2.1%&-2.1%&-2.1% | u | u | -6.7% | -3.6% | 0.8% |

Complete entries, looked up by structure:
Results for Cn1c(/C=C/c2ccc(Cl)cc2)c([N+](=O)[O-])c(=O)n(C)c1=O = SARS PLP yeast = -3.4%; RE007 growth inh = -4.1%; MARV entry inh = x; LASV entry inh = x; StopGo reporter = 17.8µM*; NS1 function inh = -40.7%; Cruzain Triton = x; Cruzain inh noDet = x
Results for O=C(Cn1cnc2c(nnn2-c2ccccc2)c1=O)NCCc1ccccc1 = SARS PLP yeast = 2.9%; RE007 growth inh = 2.4%; MARV entry inh = x; LASV entry inh = x; StopGo reporter = -9.1%; NS1 function inh = -1.8%; Cruzain Triton = -0.5%; Cruzain inh noDet = -2.8%

Later entries:
| compound | SARS PLP yeast | RE007 growth inh | MARV entry inh | LASV entry inh | StopGo reporter | NS1 function inh | Cruzain Triton | Cruzain inh noDet |
| --- | --- | --- | --- | --- | --- | --- | --- | --- |
| COc1cc(NC(=O)c2nc3ccccc3nc2C)cc(OC)c1OC | x | x | -28.5%[46.1 µM] | u | -6.9% | x | -4.6% | 6.4% |
| Cc1cc(C)n2c(Nc3ccc(Cl)cc3)c(-c3ccsc3)nc2n1 | x | x | u | 19.2%[46.1 µM] | 29.1% | x | -1.8% | 2.1% |
| CCOC(=O)C(=CNc1cccc(C)c1C)C(=O)OCC | 0.0% | -0.2% | u | 9.0% | x | -6.8% | 6.2% | -13.4% |
| O=C(O)c1ccccc1NSc1ccccc1[N+](=O)[O-] | -2.0% | 13.9% | -6.1%[46.1 µM] | -6.7% | 13.8% | x | x | x |
| CCC(C)C(NC(=O)C(N)CC(C)C)C(=O)NC(CCC(=O)OCc1ccccc1)C(N)=O (stereo not drawn) | -5.2% | -2.4% | 0.8% | 20.5% | x | -3.2% | -4.2% | 1.2% |
| COc1ccccc1C1C=C(c2ccc(Cl)cc2)Nc2nc(N3C(=O)CCC3=O)nn21 (stereo not drawn) | u | -4.7% | -22.9% | u | -26.2% | -2.7% | 1.6% | u |
| Cc1ccc(NC(=O)CCNC(=O)c2ccc(Br)cc2)cc1S(=O)(=O)N1CCCCCC1 | 1.0% | 0.3% | u | u | -23.3% | x | x | x |
| O=C(OCC(=O)N1CCN(C(=O)c2ccco2)CC1)c1cc(-c2ccc(F)cc2)nc2ccccc12 | -7.2% | -13.3% | u | -6.6% | x | -80.1% | -4.1% | u |
| CC(C)C(NC(=O)c1ccc(Cl)cc1)C(=O)NC1=NCCS1 (stereo not drawn) | -21.8% | -10.1% | -11.8% | -3.9% | -25.4% | -59.9% | 4.3% | -13.7% |
| CCCCOc1cccc(C(=O)N(Cc2sccc2C)C2CCS(=O)(=O)C2)c1 (stereo not drawn) | x | x | -27.1%[46.1 µM] | u | -9.2% | x | -8.1% | u |
| CN(C)C(=O)c1ccccc1Sc1ccc(Cl)cc1Cl | -21.8% | 4.6% | -16.7% | 0.8% | -26.2% | -131.3% | -0.8% | 8.5% |
| CCN1c2ccccc2-c2nc(SCC(=O)NCc3ccc(Cl)cc3)ncc2S1(=O)=O | x | x | x | u | -20.6% | x | 0.6% | -24.8% |
| COc1ccc(N2CCN(C(=O)CCn3c(=O)[nH]c4cc(OC)c(OC)cc4c3=O)CC2)cc1 | x | x | u | u | -27.9% | x | -0.7% | 8.2% |
| COc1ccc(-c2cnc[nH]2)cc1 | -2.1% | -0.9% | 9.4%[46.1 µM] | 7.3% | 33.5%[activator] | x | x | x |
| Cc1ccc(NC2Sc3ccccc3NC2=O)cc1Cl (stereo not drawn) | -2.6% | 3.8% | x | x | 25.7% | 4.7% | x | x |
| Cc1ccc(-n2nc3c(c2NC(=O)c2ccc4c(c2)OCO4)CSC3)c(C)c1 | -1.5% | -5.6% | -0.1% | -13.1% | 2.0% | -14.1% | 2.5% | 7.3% |
| CS(=O)(=O)c1ccc2nc(NC(=O)CCNC(=O)c3ccc([N+](=O)[O-])cc3)sc2c1 | -2.3% | -2.9% | u | 0.3% | 29.3% | x | x | x |
| O=C1CC(=O)N(c2ccc(Cl)cc2Cl)C(=O)N1 | 2.8% | 18.9% | 5.7% | 8.8% | 6.3% | 8.5% | -7.7% | -3.9% |
| CCN(CC(=O)Nc1c(F)cccc1F)C(=O)c1ccc(Cl)c(S(=O)(=O)N2CCCC2)c1 | -4.7% | 10.3% | -6.1% | -18.0% | 21.6% | x | x | x |
| O=C(CSc1ncnc2sc3c(c12)CCC3)Nc1ccccc1C(=O)O | 0.3% | -8.2% | -2.1%[46.1 µM] | 8.4% | -3.9% | u | x | x |
| Cc1c(N/C=C/C(=O)c2cccs2)c(=O)n(-c2ccccc2)n1C | 4.6% | 3.7% | 1.8% | 0.9% | x | -10.5% | -9.3% | 5.2% |
| COc1ccc(OC)c(C(O)C2CCCCN2)c1 (stereo not drawn) | -1.0% | 3.4% | 9.5% | -18.7% | -26.7% | 0.6% | x | x |
| CCOC(=O)C1(Cc2cccc(F)c2)CCN(Cc2ccon2)CC1 | -1.3% | -1.3% | -22.8%[46.1 µM] | 12.2% | -26.3% | 4.0% | x | x |
| CCc1ccc(C(=O)CN2C(=O)NC3(CCCCCC3)C2=O)cc1 | 1.9% | -4.8% | u | -0.5% | 47.3%[activator] | x | x | x |
| COc1cccc(NC(=S)NNC(=O)c2c([N+](=O)[O-])c(C)nn2C)c1 | -17.0% | 5.1% | u | -17.1%[14.3 µM] | 17.5% | -3.7% | -0.7% | 9.9% |
| Cc1cc(C(=O)NCC(c2ccco2)N(C)C)ccc1[N+](=O)[O-] (stereo not drawn) | -1.1% | 20.5% | 0.9%[46.1 µM] | 2.7% | -0.8% | 8.8% | x | x |
| C#CC(C)(C)NS(=O)(=O)c1cc(-c2nnc(Nc3ccc(C)cc3)c3ccccc23)ccc1C | x | x | u | u | 32.2%[activator] | x | -2.6% | -15.8% |
| COCCn1c(C)cc(O)c(C(c2ccc(F)cc2)N2CCC(C)CC2)c1=O (stereo not drawn) | x | x | x | 0.4%[46.1 µM] | -7.3% | x | 0.2% | 18.0% |
| COc1ccc(Cn2c(C(=O)O)c(CNCc3ccco3)c3ccc(C)cc32)cc1 | x | x | x | u | -6.4% | x | -4.8% | u |
| CCOC(=O)c1c(C)[nH]c(C)c1C(=O)CSc1nc(N)cc(N)n1 | 1.2% | -0.1% | -13.6% | -3.6% | 10.6% | 8.7% | 0.8% | -8.5% |
| Cc1ccc(N2CCN(C(=O)c3nn(C)c4c3CS(=O)(=O)c3ccccc3-4)CC2)c(C)c1 | -7.5% | 7.0% | x | -8.9%[46.1 µM] | 0.0%&-10.9% | -2.9% | -10.7% | -2.3% |
| COc1ccc(NC(=O)COC(=O)CCCC2=NS(=O)(=O)c3ccccc3N2)cc1Cl | -1.8% | 3.3% | x | x | -4.0% | 3.2% | x | x |

Compound activity as filed in PubChem.
